Cruzain noTriton: blocks cruzain activity in detergent-free assay | Potency, µM, for the others: max response, negative = inhibition, most hits filed as inhibitors | actives 2.3% (n = 200,000) | P25779 | AID 1476 | purified cruzain, Z-FR-AMC fluorescence, no detergent; active = well fitted curve in the direction sought with a large enough effect; inconclusive = small, poorly fitted or top-dose-only effect, or another doubt; inactive = no such curve, though single readings can be large; an effect the other way counts as inactive or inconclusive;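 also: plate controls were enzyme without inhibitor for no effect and buffer without enzyme for full effect; nearly all actives have a fitted effect of over 40% in size; top concentration of the series not given in the record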
Target sequence (P25779 123-467 limits assumed): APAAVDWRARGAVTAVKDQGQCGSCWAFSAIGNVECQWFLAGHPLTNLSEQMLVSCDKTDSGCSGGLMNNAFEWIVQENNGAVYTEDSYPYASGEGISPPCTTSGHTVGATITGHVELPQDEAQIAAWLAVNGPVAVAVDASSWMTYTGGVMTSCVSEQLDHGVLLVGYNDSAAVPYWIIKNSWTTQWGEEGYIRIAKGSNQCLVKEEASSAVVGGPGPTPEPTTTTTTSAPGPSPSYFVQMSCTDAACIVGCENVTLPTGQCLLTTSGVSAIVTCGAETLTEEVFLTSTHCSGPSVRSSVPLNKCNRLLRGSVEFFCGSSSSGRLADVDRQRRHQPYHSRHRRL
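Purified cruzain at 1.5 nM, pre-incubated 15 min with compound at room temperature in 100 mM sodium acetate pH 5.5, 5 mM DTT, 0.00005% Triton X-100. Reaction started with 2 uM Z-FR-AMC; AMC fluorescence increase over 60 s gives rate.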
Cruzain inh Det: blocks cruzain activity in presence of Triton detergent. actives 0.43% (n = 200,000). AID 1478. purified cruzain, Z-FR-AMC fluorescence, 0.01% Triton. P25779. Potency, µM, without a hit: max response, negative = inhibition, usual class: inhibitors; active = well fitted curve in the direction sought with a large enough effect; inconclusive = small, poorly fitted or top-dose-only effect, or another doubt; inactive = no such curve, though single readings can be large; an effect the other way counts as inactive or inconclusive;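 also: plate controls were neutral wells for no effect and buffer without enzyme for full effect; nearly all actives have a fitted effect of over 40% in size; top concentration of the series not given in the record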
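Cysteine protease activity tested under reducing, mildly acidic conditions (100 mM sodium acetate pH 5.5, 5 mM DTT) plus 0.01% Triton X-100. Cruzain 1.5 nM; substrate Z-FR-AMC 2 uM; 15 min compound preincubation at room temperature.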
SARS PLP yeast: blocks SARS-CoV papain-like protease in a yeast assay. Potency, µM (titrated, usually from 32.9 µM), inactives show at the top dose activity, positive = growth rescue. S. cerevisiae expressing SARS-CoV PLpro, growth rescue; control for the full effect not named in the record. actives 0.19% (n = 330,000). AID 485353; also: 0% is about no effect; nearly all actives have a fitted effect of over 55% in size; growth read by luminescence after 48 h
Lassa entry inh: Lassa virus entry inhibition. Lassa virus pseudotype entry inhibition, cell reporter; control for the full effect not named in the record. Potency, µM (doses to about 37.9 µM), without a hit: top-dose activity change, negative = inhibition, most hits filed as inhibitors. actives 1.2% (n = 300,000). AID 540256; active means well fitted inhibition curve with a large enough effect; inconclusive means small, poorly fitted or top-dose-only effect, or effect the other way; inactive means flat fitted curve, though single readings scatter; tested in HEK293 cells; also: % is scaled to controls: 0 for no effect and ±100 for the full control effect; nearly all actives have a fitted effect of over 50% in size; luciferase read-out
RE007 growth inh: less growth of the S. pombe RE007 Vpr strain | S. pombe RE007 Vpr strain, BacTiter-Glo ATP luminescence, 24 h; control for the full effect not named in the record | Potency, µM (titrated, usually from 92.2 µM), without a hit: top-dose activity change, negative = less growth | actives 0.21% (n = 360,000) | AID 651644; active = well fitted falling curve with a large enough effect; inconclusive = small, poorly fitted or top-dose-only effect; inactive = no such curve, though single readings can be large or run the other way;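 also: % is scaled to controls: 0 for no effect and ±100 for the full control effect; nearly all actives have a fitted effect of over 50% in size; the assay follows cell death caused by Vpr and the record does not say whether a fall means rescue or toxicity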
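Fission yeast strain RE007, carrying one chromosomally integrated HIV-1 vpr copy, was seeded at OD 0.01 in PMG+AL medium with 23 nL pinned compound. After 24 h at 30 °C and 99% humidity, viability was read by BacTiter-Glo luminescence.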
NS1 function inh: inhibitors of influenza NS1 protein function | Potency, µM (doses to about 46.1 µM), for inactives: at the top dose activity, positive = more growth | actives 0.4% (n = 270,000) | S. cerevisiae slowed by influenza A NS1, growth recovery by OD600; also: actives are rising curves; nearly all actives have a fitted effect of over 50% in size
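Recovery from NS1-induced slow growth read by OD600 in budding yeast switched to galactose assay medium (pH 6.0, -URA) at 1:100 dilution. Compound 23 nl per well; the matching strain lacking NS1 serves as control.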
StopGo reporter: FMDV 2A StopGo reporter, luciferase signal; human cells with a luciferase reporter of 2A StopGo recoding; control for the full effect not named in the record; Potency, µM (top dose mostly 57.9 µM), without a hit: top-dose signal change, negative = less light; actives 1.2% (n = 410,000); AID 1159524; active = well fitted falling curve with a large enough effect; inconclusive = small, poorly fitted or top-dose-only effect; inactive = no such curve, though single readings can be large or run the other way; tested in HEK293T cells; also: % is scaled to controls: 0 for no effect and ±100 for the full control effect; nearly all actives have a fitted effect of over 45% in size; luciferase light after 4 h
MARV entry inh: inhibitors of Marburg virus binding or cell entry | Marburg virus pseudotyped entry inhibition, cell reporter; control for the full effect not named in the record; about a third of the inactives were read at about 46 µM | Potency, µM (doses to about 37.8 µM), for the others: at the top dose activity change, negative = inhibition, most hits filed as inhibitors | actives 1.8% (n = 300,000) | AID 540276; active = well fitted inhibition curve with a large enough effect; inconclusive = small, poorly fitted or top-dose-only effect, or effect the other way; inactive = flat fitted curve, though single readings scatter; tested in HEK293 cells; about a fifth of its hits are not listed in these tables; also: % is scaled to controls: 0 for no effect and ±100 for the full control effect; luciferase read-out
* hit, by the source's call; ? = inconclusive; · = no result given; [ ] = another dose, or the depositor's remark. Unless noted, calls follow the shape of the dose curve; as a rule, active means well fitted rising curve with a large enough effect; inconclusive means small, poorly fitted or top-dose-only effect; inactive means no such curve, though single readings can be large or run the other way. Potency is read from the fitted curve at half-maximal effect.

Values in the order – Cruzain noTriton	Cruzain inh Det	SARS PLP yeast	Lassa entry inh	RE007 growth inh	NS1 function inh	StopGo reporter	MARV entry inh
- Cc1c(-c2ccc(F)cc2)nc(N)c(C#N)c1-c1cccnc1
    ·	·	1%	-7%	-3%	-9%	-13%	24%[14.2 µM]
- Cn1c2ccccc2c2cnn(CC(=O)N3CCN(c4cccc(C(F)(F)F)c4)CC3)c(=O)c21
    -1%	-4.8%	·	7%[46.1 µM]	·	·	-6%	-7%[46.1 µM]
- COc1nc(Cl)cn(-c2ccc(C)cc2)c1=O
    -3%	-0.8%	-1%	-2%	11%	-16%	-4%	30%
- COc1ccc2nc(C)cc(NCc3cccc(C(F)(F)F)c3)c2c1
    ·	·	-3%	?	-5%	-10%	-17%	?
- CN(C)CCCNc1cc(Cl)c(S(=O)(=O)N2CCCCC2)cc1C(=O)O
    -5%	2.1%	2%	-5%	-6%	7%	·	13%
- CCOC(=O)C1=C(N)OC2=C(C(=O)CC(C)(C)C2)C1c1cccs1 (stereo not given)
    -9%	-9.7%	4%	6%	-2%	2%	?	-4%
- CCC(=O)Nc1ccc(NC(=O)c2ccccn2)cn1
    -17%	-2.0%	-4%	10µM*	-2%	-4%	13%	?
- C/C(=N\Nc1nc2c(s1)CCCC2)c1ccc(Cl)cc1
    -12%	-13%	7%	-21%	0%	-55%	?	?
- CCN(CC)CCNC(=O)c1ccc(NC(=O)c2cn(-c3ccc(F)cc3)nc2-c2cccc(OC)c2)cc1
    ·	·	-5%	?	5%	-7%	11%	?
- COc1ccc(Cl)cc1C(=O)C1CCCN(CCO)C1 (stereo not given)
    ·	·	0%	3%[46.1 µM]	-4%	-2%	6%	?
- C/C(=N\NC(=O)c1ccc(Br)cc1)C1C(=O)c2ccccc2C1=O
    14%	-12%	-20%	2%	9%	-135%	·	-1%
- O=C1CCC([N+](=O)[O-])C(c2ccc(-c3ccccc3)cc2)N1 (stereo not given)
    ·	·	·	-16%[46.1 µM]	-18%	·	-9%	1%[46.1 µM]
- O=C(Cn1ncnn1)OCc1ccccc1Cl
    2%	0.0%	5%	-5%	-9%	3%	2%	-13%
- N#Cc1nc(Cc2cccc3ccccc23)oc1NCC1CCCO1 (stereo not given)
    7%	-2.1%	3%	30%[14.3 µM]	3%	-49%	9%	-2%
- Cc1c(S(=O)(=O)NC2CCCCC2)c(=O)n(C)c(=O)n1C
    ·	·	-1%	2%	4%	·	-7%	18%[46.1 µM]
- CN1CCN(c2ccccc2NC(=O)c2ccc3c(c2)OCCO3)CC1
    ·	·	-1%	?	-15%	-6%	20%	5%[46.1 µM]
- COCCN(CCOC)c1ncnc2c1cnn2-c1ccccc1
    ·	·	-3%	·	-6%	-5%	22%	0%
- S=c1[nH]nc(-c2c[nH]c3ccccc23)o1
    ·	·	-4%	9%[46.1 µM]	-8%	-5%	-3%	14%[46.1 µM]
- Cc1cccc(N(C(=O)Cn2nnc3ccccc32)C(C(=O)NC(C)(C)C)c2ccsc2)c1 (stereo not given)
    3%	5.4%	6%	-12%	9%	4%	·	-2%
- COc1cc(-c2noc(CCC(N)=O)n2)cc(OC)c1OC
    -1%	1.8%	-6%	·	·	-2%	·	3%
- Cc1ccc(NCCC(=O)c2ccc(Cl)cc2)cc1C
    ?	-4.6%	1%	16%	7%	0%	25%	5%
- Oc1oc(-c2ccccc2)nc1C=Nc1ccccc1
    -10%	-9.6%	-18%	2%	-24%	-30%	·	2%
- O=C(NC1=NCCS1)C1CCN(S(=O)(=O)c2cc([N+](=O)[O-])ccc2Cl)CC1
    ·	·	-8%	-20%	-15%	·	?	?
- Cc1n[nH]c(=O)nc1Nc1ccc(O)cc1
    -3%	-4.1%	4%	-9%	-5%	1%	13%	?
- Cc1cc(OCC(=O)Nc2ccccc2N2CCCC2)ccc1C(C)C
    ·	·	-8%	-20%	-24%	·	-23%	-3%
- CSc1ccccc1-c1nnc(NC(=O)Cc2ccccc2)o1
    ·	·	-5%	·	4%	-6%	11%	·
- Cc1cc(C)cc(-n2c(C)cc(/C=N/NC(=O)CSc3ncccn3)c2C)c1
    -4%	-1.8%	-3%	?	-1%	17%	-27%	?
- COc1ccc(-c2noc(-c3ccc(NC(C)c4ccccc4)c([N+](=O)[O-])c3)n2)cc1OC (stereo not given)
    13µM*	-4.8%	·	-2%[46.1 µM]	·	·	-16%	-19%[46.1 µM]
- O=C1COc2ccc(C(=O)NCc3ccc4c(c3)OCO4)cc2N1
    -7%	2.1%	0%	9%	-23%	-2%	-2%	3%
- Cc1ccc(C)c(NC(=O)CN(C)C(=O)c2ccncc2)c1
    ·	·	-1%	·	-10%	1%	3%	·
- COc1cc2c(cc1OC)C1=NC(=O)CN1C(SCc1ccc(C)cc1)=N2
    -9%	5.6%	4%	-28%	-5%	?	-23%	?
- NC1=NOC(=O)C1C1CCCCC1 (stereo not given)
    ·	·	·	-19%[46.1 µM]	1%	·	2%	?
- NS(=O)(=O)c1cc(C(=O)NCCOc2ccccc2)c(Cl)cc1Cl
    5%	-0.1%	1%	-9%	13%	7%	2%	21%
- CC(C)CCn1nnnc1C(c1ccccc1F)N1CCC(C(N)=O)CC1 (stereo not given)
    -1%	-0.4%	4%	1%	-2%	-2%	25%	4%[46.1 µM]
- O=c1oc2ccccc2n1Cc1cccc(F)c1
    ·	·	0%	·	11%	3%	3%	·
- NC(=O)c1cc(S(=O)(=O)NCCc2ccc(Cl)cc2)cs1
    ·	·	0%	10%[46.1 µM]	14%	13%	17%	?
- O=C(CCN1CCOCC1)NNC(=O)Nc1cccc(C(F)(F)F)c1
    ·	·	3%	0%	10%	-1%	-9%	?
- O=C1CCCN1c1ccc(S(=O)(=O)Oc2cccc(Cl)c2)cc1[N+](=O)[O-]
    13%	0.2%	-5%	3%	12%	3%	0%	15%
- CCN1CC(CN(C)Cc2nc(-c3cccs3)no2)CC1=O (stereo not given)
    ·	·	0%	10%[46.1 µM]	-2%	1%	0%	?
- CN(C)C(/C=C/Nc1ccc(Br)cc1)=C(C#N)C#N
    ·	·	-1%	1%	-5%	7%	21%	5%[46.1 µM]
- COCCN(CC(=O)Nc1cccc(C)c1C)C(=O)Cc1sc(C)nc1-c1ccc(F)cc1
    ·	·	-2%	-28%	17%	·	-20%	·
- O=C(OCC(=O)N(C1CCCCC1)C1CCCCC1)c1ccco1
    -4%	-2.4%	4%	4%	16%	-2%	-19%	?
- CCCCn1nc2cc(C(=O)NCc3ccccc3)ccc2c1OCC
    12%	-5.6%	0%	·	-11%	-68%	17%	·
- O=C(NCc1cccs1)c1ccc(CSc2nc3ccncc3n2Cc2cccc(F)c2)cc1
    7%	-7.4%	·	-9%[46.1 µM]	·	·	-15%	6%[46.1 µM]
- CCOC(=O)c1nnn2c1nc(N1CCCCC1)c1ccccc12
    ·	·	2%	15%	-10%	5%	-12%	9%[46.1 µM]
- Cc1ccc(-c2csc3nnc(SCC(=O)NCc4ccc5c(c4)OCO5)n23)cc1
    -8%	-3.2%	-1%	11%	4%	-18%	-25%	-4%
- COc1cc(N2CCCC2)c(OC)cc1C=O
    ·	·	-3%	2%	4%	4%	-23%	-8%
- CCOC(=O)c1cc(-c2ccccc2)sc1NC(=O)C(C)OC(=O)c1ccncc1 (stereo not given)
    17%	-0.8%	-4%	5%	-23%	-5%	-11%	-2%
- Cc1ccc(CNC(=O)CCS(=O)(=O)c2ccc3c(c2)NC(=O)CO3)cc1
    ·	·	7%	·	4%	2%	-3%	·
- CCOC(=O)C1=C(c2ccccc2)N=C2SCC(=O)N2C1c1cccc(OC)c1 (stereo not given)
    -14%	-1.1%	2%	-3%	3%	13%	-14%	-3%
- CCOC(=O)CCS(=O)(=O)c1nc(-c2ccccc2)cc(C(F)(F)F)n1
    28%	-6.6%	-30%	13µM*	-20%	-103%	20µM*	6.3µM*
- CC(Sc1nncn1C)C(=O)Nc1ccc2ccccc2c1 (stereo not given)
    ·	·	1%	29%	2%	·	13%	?
- COc1cccc(/C=N/NC(=O)CNC(=O)CCc2ccccc2)c1O
    ·	·	0%	·	4%	-3%	66%[activator]	·
- Cc1ccc(NC(=O)Cn2nnc(C(=O)Nc3ccc(F)c(Cl)c3)c2N)cc1
    ·	·	12%	·	3%	-1%	-6%	·
- O=C(NNc1ccc(C(F)(F)F)cc1[N+](=O)[O-])c1ccc(NS(=O)(=O)c2ccc(F)cc2)cc1
    4%	-8.5%	-4%	?	?	11%	-20%	?
- CCOc1ccccc1N(CC(=O)NCC1CCCO1)C(=O)CCC(=O)Nc1nccs1 (stereo not given)
    ·	·	-2%	·	-22%	-3%	22%	-8%[46.1 µM]
- Cc1ccc(N2C(=O)[C@@H]3C(c4cccnc4)=NO[C@@H]3C2=O)cc1
    ·	·	0%	·	?	5%	-10%	·
- O=[N+]([O-])c1ccc(Cl)cc1NCc1cccnc1
    ·	·	·	1%	-8%	·	-19%	10%
- COc1cc(NC(=O)c2cccs2)c(C(=O)OCC(=O)NCc2ccccc2)cc1OC
    25%	-4.6%	1%	12%	18%	3%	?	21%
- Cc1nc(Nc2ccc(S(N)(=O)=O)cc2)sc1C(=O)Nc1ccccc1
    ·	·	0%	?	-11%	·	?	-29%[46.1 µM]
- CSc1ccc(C(=S)N2CCN(C(c3ccccc3)c3ccccc3)CC2)cc1
    4µM*	-1.8%	9%	?	-2%[3.69 µM]	19%	-17%	-23%
- Cc1sc2ncn(CC(=O)N3CCN(c4ccccc4)CC3)c(=O)c2c1S(=O)(=O)N1CCN(c2ncccn2)CC1
    14%	2.7%	·	-3%[46.1 µM]	·	·	-17%	14%[46.1 µM]
- O=C(c1ccccc1NS(=O)(=O)c1ccc(Br)cc1)N1CCOCC1
    ·	·	-3%	?	-6%	8%	-7%	5%

Compound activity: PubChem, National Center for Advancing Translational Sciences (NCATS)
